gsp agonist: qHTS for Agonist of gsp, the Etiologic Mutation Responsible for Fibrous Dysplasia/McCune-Albright Syndrome: qHTS; gsp mutant cells, cAMP HTRF, 30 min; control for the full effect not named in the record; Potency, µM (highest dose often 76.9 µM), for the others: at the highest dose activation (cAMP increase), most hits filed as activators; actives 0.13% (n = 340,000); active = well fitted activation curve with a large enough effect; inconclusive = small, poorly fitted or top-dose-only effect, or another doubt; inactive = no such curve, though single readings can be large or run the other way; cell line not stated here;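 also: phosphodiesterase inhibitor Ro 20-1724 added with compounds to block cAMP breakdown; potency is read from the fitted curve at half-maximal effect; nearly all actives have a fitted effect of over 60% in size; about a fifth of the inactives were tested at one dose only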
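Cells in DMEM/10% FBS with G418 were pretreated with compounds in DMSO plus […] (300 uM stock) for 30 min at 37C. cAMP was measured by HTRF (cAMP-d2 plus anti-cAMP antibody-K) after 30 min at room temperature.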
TRPV1 potentiator: HTS Assay for Compounds that Act as Potentiators of the Vanilloid Receptor 1; Transient receptor potential cation channel subfamily V member 1 (Homo sapiens), Q8NER1; TRPV1-expressing cells, Fluo-8 calcium influx, capsaicin EC20 potentiation; host cell line not named in the record; control for the full effect not named in the record; potentiation, % at 8.33 µM; actives 0.02% (n = 320,000); AID 540277, 2011; active means potentiation above 80%; inconclusive means 30% to 80%; inactive means below 30%; also: 0% is about no effect
Target sequence (Q8NER1 whole entry, looked up): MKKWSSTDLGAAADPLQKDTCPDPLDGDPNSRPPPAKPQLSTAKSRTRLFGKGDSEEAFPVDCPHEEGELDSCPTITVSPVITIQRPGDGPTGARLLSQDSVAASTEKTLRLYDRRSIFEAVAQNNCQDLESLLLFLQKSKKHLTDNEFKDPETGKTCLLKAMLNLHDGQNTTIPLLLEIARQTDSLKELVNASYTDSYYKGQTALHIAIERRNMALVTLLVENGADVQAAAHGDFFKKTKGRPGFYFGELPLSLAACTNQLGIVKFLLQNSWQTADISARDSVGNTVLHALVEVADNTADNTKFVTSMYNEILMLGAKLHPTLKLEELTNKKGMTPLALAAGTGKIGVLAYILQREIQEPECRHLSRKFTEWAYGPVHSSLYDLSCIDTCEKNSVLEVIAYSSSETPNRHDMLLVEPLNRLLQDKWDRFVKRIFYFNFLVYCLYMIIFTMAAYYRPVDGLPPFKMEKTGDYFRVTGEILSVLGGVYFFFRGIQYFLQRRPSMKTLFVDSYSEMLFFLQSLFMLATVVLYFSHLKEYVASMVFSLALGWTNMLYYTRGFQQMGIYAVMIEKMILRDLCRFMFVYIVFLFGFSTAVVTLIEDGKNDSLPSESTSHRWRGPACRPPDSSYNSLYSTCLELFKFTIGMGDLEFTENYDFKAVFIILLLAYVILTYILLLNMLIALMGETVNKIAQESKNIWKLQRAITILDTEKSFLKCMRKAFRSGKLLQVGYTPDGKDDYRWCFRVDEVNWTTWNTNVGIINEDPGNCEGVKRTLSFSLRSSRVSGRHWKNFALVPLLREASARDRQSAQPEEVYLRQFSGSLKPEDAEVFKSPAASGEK
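Fluo-8 calcium influx in TRPV1-expressing cells, kinetic read (ex 480/em 520 nm). Compound added and read 3 min for agonist activity, followed by capsaicin at EC20 final and 2 min further read for enhancement.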
D2 PAM: Beta-Arrestin HTS for Positive Allosteric Modulators of the Human D2 Dopamine Receptor: Potentiators | actives 0.23% (n = 360,000) | D(2) dopamine receptor (Homo sapiens), P14416 | potentiation, % (no concentration beside the values) | DiscoveRx D2 beta-arrestin cells, luminescence, 90 min; 100% = 57 uM dopamine signal; active = potentiation of 50% or more; inconclusive = 30% to 50%; inactive = 30% or less;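 also: compound concentration not given in the record; tested on top of an EC20 dose of dopamine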
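PathHunter beta-arrestin assay in DiscoveRx D2 cells. Compounds were added with an EC20 of dopamine (50 nM final) for 90 min at 37 deg C. Luminescence was read 1 h after detection reagent, with 57 uM dopamine as the EC100 control.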
Sfp inh: qHTS Assay for Inhibitors of Bacillus subtilis Sfp phosphopantetheinyl transferase (PPTase) | AID 1490, 2009 | actives 3.5% (n = 310,000) | 4'-phosphopantetheinyl transferase ffp (Bacillus subtilis), Q9F4F7 | Potency, µM, for the others: max response, negative = inhibition, actives largely listed as inhibitors | Biochemical Sfp PPTase activity, qHTS; active = well fitted inhibition curve with a large enough effect; inconclusive = small, poorly fitted or top-dose-only effect, or another doubt; inactive = no such curve, though single readings can be large or run the other way;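 also: the enzyme is Sfp with the accession as filed and its product quenches rhodamine fluorescence; potency is read from the fitted curve at half-maximal effect; 0% = enzyme reaction without inhibitor and -100% = no enzyme wells; top concentration of the series not given in the record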
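Compounds were incubated with enzyme (final 15 nM) for 15 min at room temperature before substrate addition started the reaction. Fluorescence at 525 nm excitation, 598 nm emission was recorded immediately and after 30 minutes.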
ClpP mod: qHTS Assay for Activators of ClpP | purified B. subtilis ClpP, FRET peptide cleavage, 20 min | ATP-dependent Clp protease proteolytic subunit (Bacillus subtilis (strain 168)), P80244 | actives 1.9% (n = 340,000) | Potency, µM (top dose mostly 57.5 µM), inactives show at the highest dose activity change, negative = active | AID 651965, 2013; active = well fitted falling curve with a large enough effect; inconclusive = small, poorly fitted or top-dose-only effect; inactive = no such curve, though single readings can be large or run the other way; also: potency is read from the fitted curve at half-maximal effect; the source files actives as falling curves though it sought activators and does not explain the sign; nearly all actives have a fitted effect of over 65% in size; many hits overshoot -100%
Target sequence (P80244 whole entry, looked up): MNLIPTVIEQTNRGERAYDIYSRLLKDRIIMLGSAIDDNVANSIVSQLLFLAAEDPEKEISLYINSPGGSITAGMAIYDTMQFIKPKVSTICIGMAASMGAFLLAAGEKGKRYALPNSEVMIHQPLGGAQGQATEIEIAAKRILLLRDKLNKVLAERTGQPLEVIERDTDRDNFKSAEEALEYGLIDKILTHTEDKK
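ClpP 10 microg/mL final, pH 8 Tris/KCl buffer with BSA, glycerol, Tween-20; compound pinned in; FRET-FV substrate; RT 20 min; Ex320/Em430; ΔFRET vs ADEP 5.8 microM, DMSO, no enzyme.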
Menin MLL FP FL: qHTS Assay for Inhibitors Targeting the Menin-MLL Interaction in MLL Related Leukemias: Competition With Fluorescein Labeled MLL-derived Peptide; Fluorescence polarization, fluorescein-MLL peptide displacement from menin; FP activity change, % at 61.4 µM; 290,000 tested, under 10 active; inconclusive = falling polarisation curve, or a change in total fluorescence; inactive = total fluorescence flat and polarisation flat or rising; no compound was filed as active; the % refers to the polarisation; negative = inhibition;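 also: % of control where 0% means no effect; inhibitors lower the polarisation; unlabelled MLL peptide was the positive control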
gsp antag: qHTS for Antagonists of gsp, the Etiologic Mutation Responsible for Fibrous Dysplasia/McCune-Albright Syndrome: qHTS | gsp-mutant cells, cAMP HTRF, 30 min; control for the full effect not named in the record | Potency, µM (highest dose often 76.9 µM), without a hit: at the highest dose activity change, negative = inhibition, actives largely listed as inhibitors | AID 624288, 2012 | actives 0.4% (n = 340,000); active = falling curve of any shape with a large fitted effect; inconclusive = falling curve, mostly with a smaller effect; inactive = flat or rising curve; cell line not stated here;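 also: intracellular cAMP measured with PDE inhibitor Ro 20-1724 present during compound exposure; potency is read from the fitted curve at half-maximal effect; % is scaled to controls: 0 for no effect and ±100 for the full control effect; nearly all actives have a fitted effect of over 65% in size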
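HTRF cAMP read-out (cAMP-d2 plus anti-cAMP antibody-K in lysis buffer, 30 min RT). Before lysis, cells are exposed to compounds with […] for 30 min at 37C in DPBS containing Ca/Mg, BSA and Tween 20.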
The depositor's hits bear a star; ? = inconclusive; / = no result given; & = joins results of further samples; [ ] = dose if it differs, or a comment.

SMILES	gsp agonist	TRPV1 potentiator	D2 PAM	Sfp inh	ClpP mod	Menin MLL FP FL	gsp antag
COc1cc(/C=N/NC(=O)COc2cccc(F)c2)ccc1OS(=O)(=O)c1ccc(C)cc1	-45%[inhibitor]	-3	-28	12%	-3.6%	2.5	-22%
O=C(Cn1cncn1)NCCCc1ccccc1	-16%[15.4 µM]	-31	0	13%	-13%	5.2	-12%
COc1ccc(C(=O)C2CC2)cc1	2%	/	1	/	-2.1%	/	4%
Cc1cccc(C(=O)NNC(=O)c2ccc(Br)cc2)c1	-7%[15.4 µM]	-9	-5	22%	/	0.5	15%
COc1ccccc1C1=CC(=O)CCC1	-33%[inhibitor]	/	-5	/	-4.3%	/	6%
CC1(c2nnc(-c3ccccc3)o2)CC(c2c(Cl)cccc2Cl)=NO1 (stereo not given)	/	/	-3	/	-0.9%	/	?
COc1ccccc1N(CC(=O)NC1CCCCC1)C(=O)CCC(=O)Nc1ccccn1	-32%[inhibitor]	-7	-5	15%	1.1%	0.6	4%
CCCCCCCn1c2c(c(=N)c3c1CCC3)CCCC2	3%[15.4 µM]	2	-14	-9%	/	-4.3	/
Cc1sc(NC(=O)Cc2ccc3c(c2)OCO3)nc1-c1ccc2c(c1)CCN2C(=O)c1ccccc1F	-4%[15.4 µM]	4	-6	6%	-5.3%	3.2	-3%
O=C(c1ccc(Cl)s1)N1CCN(c2nc3ccccc3s2)CC1	-101%[inhibitor]	/	-28	1%	-3.6%	3.8	?
COc1cc(CNc2ccc(N3CCCC3)cc2)cc(Cl)c1OC	-9%[15.4 µM]	4	5	14µM*	/	-1.3	-3%
CCCn1nc(C(=O)Nc2cc(C(=O)OC)ccc2C)c2ccccc2c1=O	16%	5	-13	7%	-2.3%	2.6	3%
Cc1noc(N)c1C(=O)Nc1ccc(F)cc1	3%	7	14	17%	-2.3%	-2.4	3%
O=C(Nc1ccccc1N1CCCC1)c1cccc(S(=O)(=O)N2CCOCC2)c1	-6%[15.4 µM]	-22	2	/	/	/	-8%
O=C(Cc1ccccc1)N1CCC(c2ccccc2)C1 (stereo not given)	-15%[15.4 µM]	-14	0	11%	-2.4%	1.3	7%
O=C(O)C1CC(O)CN1S(=O)(=O)c1ccc2ccccc2c1 (stereo not given)	-5%[15.4 µM]	-43	-18	/	1.1%	/	5%
COc1cccc(CN2CCN(S(=O)(=O)c3ccc(Cl)s3)CC2)c1	21%[15.4 µM]	-11	-8	-12%	0.3%	/	-7%
Cc1cc(N2CCCC2)nc(-c2ccccc2O)n1	22%	?	-13	8%	70%	0.2	10%
CCN(CC(=O)Nc1c(F)cccc1F)C(=O)C1CCC1	17%[15.4 µM]	-7	-1	/	/	/	12%
CC(=O)c1ccc(N/C=C\C(=O)c2ccc(C)cc2)cc1	-13%[15.4 µM]	9	-4	9%	/	-3.8	15%
C/C(Cn1nc([N+](=O)[O-])cc1C)=N\NC(=O)c1ccc(O)cc1O	26%	-14	-9	4%	0.7%	2.4	-4%
O=C(COC(=O)c1cccc(Cl)c1Cl)NCCN1C(=O)CSC1=O	-3%	0	5	0%	-0.8%	5.1	8%
S=C(NNC(=S)NC1CC2C=CC1C2)NC1CC2C=CC1C2 (stereo not given)	-3%[15.4 µM]	-3	-16	-22%	/	0.0	-5%
COc1ccccc1N1CCN(C(=O)c2cc3c(C)nc4ccccc4c3o2)CC1	7%	23	-3	-12%	0.6%	/	-27%
CCOC(=O)c1cc(S(=O)(=O)Nc2cccc(OC)c2)cn1C	?	-5	-3	11%	-0.6%	2.3	-21%

Some of the entries above, reformatted.
SMILES | gsp agonist | TRPV1 potentiator | D2 PAM | Sfp inh | ClpP mod | Menin MLL FP FL | gsp antag
O=C(c1ccc(Cl)s1)N1CCN(c2nc3ccccc3s2)CC1 | -101%[inhibitor] | / | -28 | 1% | -3.6% | 3.8 | ?
COc1cc(CNc2ccc(N3CCCC3)cc2)cc(Cl)c1OC | -9%[15.4 µM] | 4 | 5 | 14µM* | / | -1.3 | -3%
CCCn1nc(C(=O)Nc2cc(C(=O)OC)ccc2C)c2ccccc2c1=O | 16% | 5 | -13 | 7% | -2.3% | 2.6 | 3%
Cc1noc(N)c1C(=O)Nc1ccc(F)cc1 | 3% | 7 | 14 | 17% | -2.3% | -2.4 | 3%
O=C(Nc1ccccc1N1CCCC1)c1cccc(S(=O)(=O)N2CCOCC2)c1 | -6%[15.4 µM] | -22 | 2 | / | / | / | -8%

Carrying on:
SMILES	gsp agonist	TRPV1 potentiator	D2 PAM	Sfp inh	ClpP mod	Menin MLL FP FL	gsp antag
Cc1cc(=O)oc2cc(OCC(O)CN3CCc4ccccc4C3)ccc12 (stereo not given)	11%	13	-32	4%	?	-1.3	3%
Cn1c(=O)[nH]c(=O)c2c1nc(CN1CCN(c3cccc(Cl)c3)CC1)n2Cc1ccccc1Cl	-32%[inhibitor]	-27	-6	12%	-0.1%	-0.3	-8%
COc1ccc(-c2nc(SCC(=O)N3CCCC3)n[nH]2)cc1	-26%	2	-3	14%	/	2.4	-3%
Cc1ccc(C(=O)NCC(=O)OCC(=O)Nc2cc(C)c(C)cc2[N+](=O)[O-])cc1	6%	-10	-5	-1%	-1.1%	2.6	-10%
CN(C)CCCNCCCNC(=O)c1ccco1	8%&-38%	-6	-11&0	10%	-3.1%&-2.2%	-2.0	7%&-1%
O=C(COc1cccc2cccnc12)NNC(=O)Nc1ccccc1	?	17	-22	9%	-2.1%	-4.2	15%
CC(=O)Nc1nc(SCC(=O)NCC2CCCO2)[nH]c(=O)c1NC(=O)c1cccs1 (stereo not given)	-1%[15.4 µM]	?	-8	-3%	/	1.4	5%
O=C(c1ccc(-n2cnnn2)cc1)N1CCN(C(c2ccccc2)c2ccccc2)CC1	4%	1	4	7%	-1.1%	4.0	-13%
Cc1ccc2c(c1)[C@H]1[C@H](CO2)[C@H](c2ccccc2)[C@]2(C)C(=O)Nc3cc(Cl)ccc3C(=O)N12	-21%	?	-4	/	-9.7%	/	-8%
O=C(C1=C[C@H](C2CCCCC2)C[C@H](OCCCCO)O1)N1CCOCC1	/	-3	-7	13%	-1.1%	1.9	10%
COc1ccc(C(=O)N(Cc2cccs2)C2CCS(=O)(=O)C2)cc1 (stereo not given)	15%[15.4 µM]	4	-6	-2%	2.8%	-0.4	3%
CCOC(=O)C1CCN(Cc2ccc(F)c(Br)c2)CC1	-27%	29	-8	-7%	3.1%	0.1	4%
COc1ccc(CNC(=O)c2cc(-c3ccccc3O)n[nH]2)cc1	-5%	25	-7	8%	0.1%	0.6	16%
Cc1cc(C)n2nc(S(=O)(=O)N(C)c3ccccc3)nc2n1	7%	-13	0	1%	-2.6%	-1.2	-5%
CCOC(=O)c1cnc2ccc(F)cc2c1Nc1ccc2c(c1)OCCO2	12%	-11	5	?	-4.1%	-1.7	-27%
Cc1ccc(-c2cc(-c3ccc(C)cc3O)[nH]n2)cc1	13%	10	3	15%	-8.2%	-0.7	-9%
CCCc1cc(=O)[nH]c(SCc2cc(=O)oc3cc(C)c(C(C)C)cc23)n1	15%	?	-14	7%	-14%	/	3%
Cc1ccc2[nH]c(=O)c(CN(CCCN(C)C)C(=O)Nc3ccc(F)cc3)cc2c1	-8%[15.4 µM]	2	-11	13%	/	-3.3	7.1µM*
CC(C)(C)c1cc(C(=O)O)n[nH]1	-29%	7	-8	-23%	-1.2%	2.7	1%
COC(=O)c1c[nH]n2c(=O)c(C(C)C)c(C)nc12	22%	4	0	1%	/	-0.9	-3%
Cc1cccc(/C=C/c2onc(C)c2S(=O)(=O)N2CCC(C(=O)N3CCCCCC3)CC2)c1	?	2	-13	6%	/	2.8	-15%
O=C(Nc1nnc(SCc2cccc(F)c2)s1)c1ccco1	11%	?	0	9%	-2.5%	1.7	-6%
N#C/C(C(N)=O)=c1/ccc2c(c1)N1C3=C(CCCC3)CC3CCCCC31N=2 (stereo not given)	-5%	-21	0	?	3.1%	?	-15%
C=CCn1c(SCC(=O)Nc2ccccc2CC)nnc1-c1ccncc1	?	7	-9	10%	0.5%	0.5	0%
CC(C)Cn1c(=S)[nH]c2ccccc2c1=O	-1%	-11	-2	-22%	0.0%	5.3	6%

(next part)
SMILES	gsp agonist	TRPV1 potentiator	D2 PAM	Sfp inh	ClpP mod	Menin MLL FP FL	gsp antag
O=C(COC(=O)Cc1ccc(Cl)cc1Cl)NCc1ccccc1	-79%[inhibitor]	/	1	/	0.5%	/	/
CCCCOc1ccc(C)cc1CN(CCO)CCO	1%	-13	-7	4%	-1.2%	0.7	1%
CNS(=O)(=O)c1cc(OCC(N)=O)c(C)cc1Cl	-47%[inhibitor]	-3	-3	7%	-2.4%	1.9	5%
O=C(CN1C(=O)c2ccccc2C1=O)N1CCN(c2ccccn2)CC1	16%	14	-3	5%	4.9%	-1.4	2%
Cc1ccc2nc(NC(=O)C3CC3C)sc2c1 (stereo not given)	-20%	1	-3	16%	/	/	-7%
N#CC(c1ccc(=O)[nH]n1)c1ccc(Cl)cc1Cl (stereo not given)	2%	0	6	2%	/	-4.6	17%
Cc1c(N=NC2=C(O)CC(C)(C)CC2=O)cc2c(c1[N+](=O)[O-])C(C)(C)CC2(C)C	-5%[15.4 µM]	1	-4	23%	/	-1.0	?
Cc1c(NC(=S)N/N=C/c2ccc(N(C)C)cc2)c(=O)n(-c2ccccc2)n1C	-67%[inhibitor]	-3	3	2%	32µM*	-0.6	-22%

Complete entries, looked up by structure. Order of values: gsp agonist	TRPV1 potentiator	D2 PAM	Sfp inh	ClpP mod	Menin MLL FP FL	gsp antag
Listed for `O=C(CN1C(=O)c2ccccc2C1=O)N1CCN(c2ccccn2)CC1` : 16%	14	-3	5%	4.9%	-1.4	2%
Listed for `O=C(COC(=O)Cc1ccc(Cl)cc1Cl)NCc1ccccc1` : -79%[inhibitor]	/	1	/	0.5%	/	/

Screening results (PubChem)
